ALR H2O2 inh: inhibitors of human ALR sulfhydryl oxidase, primary screen, biochemical, H2O2 detection, HRP-luminol luminescence, single point. 3.8% of 290,000 active. purified ALR, DTT oxidation. FAD-linked sulfhydryl oxidase ALR (Homo sapiens), P55789. inhibition, % (concentration not given with the values). AID 485317, 2010;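 active = mean and each replicate at 75% or more; inconclusive = only one of the two met; inactive = neither met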;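 also: stock transfer was 7.5 nL into about 7.5 µL; 0% = neutral wells and 100% = wells with inactivated enzyme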
Target sequence (P55789 whole entry, looked up): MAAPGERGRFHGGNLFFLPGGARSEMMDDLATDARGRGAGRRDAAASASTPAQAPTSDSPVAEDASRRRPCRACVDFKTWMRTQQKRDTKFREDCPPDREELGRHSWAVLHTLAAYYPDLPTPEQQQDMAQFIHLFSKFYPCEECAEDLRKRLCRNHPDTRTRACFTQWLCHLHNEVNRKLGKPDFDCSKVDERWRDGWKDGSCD
AF4-AF9 inh: inhibitors of AF4 peptide binding to AF9, primary screen, biochemical, AlphaScreen, biotin-AF4 peptide, FLAG-AF9, single point | 0.47% of 350,000 active | Protein AF-9 (Homo sapiens), P42568 | inhibition, % at 10 µM | AID 651704, 2012;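 active = every replicate reaching a set inhibition limit, whatever the replicate mean, cut at about 25% in these data; inconclusive = mean inhibition reaches that limit but some replicates miss it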;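 also: 0% = plate neutral control median and 100% = total signal loss; the record names both 10 and 1 µM as test concentration; the first replicate is given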
Ecoli growth: E. coli growth inhibition, primary screen, OD600; Escherichia coli growth, 23 h; hits give low values; OD600 absorbance (test concentration not listed); 0.21% of 330,000 active; AID 1053175, 2014;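 active = OD600 absorbance below the run mean of sample wells minus 3.6 SD, in any replicate, cut at about 0.56 in these data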;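 also: stock transfer was 300 nL into about 60 µL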
FGF22 binding: binders of human FGF22 protein, primary screen, FGF22 synaptogenesis inhibitor project, biophysical, thermal shift, single point | recombinant FGF22 thermal shift, SYPRO orange fluorescence; percent of sucrose octasulfate shift, DMSO zero | calls only at 9.99 µM | 1.5% of 340,000 active | AID 651658, 2012;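 active = melting point raised past a set limit in the mean and every replicate; inconclusive = no clear call; three in four hits are not shown here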
Target sequence (Q9HCT0 whole entry, looked up): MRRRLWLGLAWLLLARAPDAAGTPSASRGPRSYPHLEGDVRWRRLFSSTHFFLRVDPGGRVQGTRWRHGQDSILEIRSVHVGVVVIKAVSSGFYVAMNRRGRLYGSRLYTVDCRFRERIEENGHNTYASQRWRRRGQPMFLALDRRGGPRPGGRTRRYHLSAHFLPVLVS
rRNA inh HTS: reduced GFP signal of wild-type E. coli, primary screen, bacterial rRNA inhibitor project, GFP/RFP fluorescence, OD600, single point | AID 720706, 2013 | E. coli WT GFP vs humanized-ribosome RFP mutants, 24 h; hits give low values; DMSO median 0, no signal -100 | GFP signal change (wild-type ribosome), % (no concentration beside the values) | 1.6% of 350,000 active;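 active = significant combined selectivity score with lowered wild-type GFP, culture density cut under 30%, mutant RFP and density less affected; inactive = any of these conditions unmet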; also: one replicate is shown; some compounds called inactive have numbers as strong as hits
HNF4A DNA FP: change in binding of human HNF4A to DNA, primary screen, biochemical, fluorescence polarization, FITC-DNA; Hepatocyte nuclear factor 4-alpha (Homo sapiens), P41235; 1 h; activity change, % at 10 µM; 0.3% of 360,000 active; in the data active = activity change above about 30%, passing the limit was not always enough;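 also: controls were the assay level and a saturating level of protein; the project sought stronger binding though the title names inhibitors; some compounds called inactive have numbers as strong as hits; positive values seem to mean higher polarization but the record does not say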
Target sequence (P41235 whole entry, looked up): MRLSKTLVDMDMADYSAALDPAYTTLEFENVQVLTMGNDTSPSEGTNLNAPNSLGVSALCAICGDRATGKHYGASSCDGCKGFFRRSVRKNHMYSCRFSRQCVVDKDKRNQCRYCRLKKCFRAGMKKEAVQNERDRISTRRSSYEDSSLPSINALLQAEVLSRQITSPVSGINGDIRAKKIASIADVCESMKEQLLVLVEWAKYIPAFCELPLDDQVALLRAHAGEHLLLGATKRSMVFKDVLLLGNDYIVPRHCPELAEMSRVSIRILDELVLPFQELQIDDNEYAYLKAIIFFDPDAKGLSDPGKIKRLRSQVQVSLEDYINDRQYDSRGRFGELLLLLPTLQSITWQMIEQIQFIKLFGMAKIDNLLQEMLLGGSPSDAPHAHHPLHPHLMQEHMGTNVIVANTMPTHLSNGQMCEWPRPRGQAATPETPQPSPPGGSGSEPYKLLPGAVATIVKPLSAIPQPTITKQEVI
Vif TR-FRET: inhibitors of Vif binding to APOBEC3G peptide, primary screen, biochemical, TR-FRET, GST-Vif 1-94, biotin-A3G peptide, dose response retest (AID 1117319); TR-FRET GST-Vif / biotin-A3G peptide binding; higher % means a stronger effect; test concentration not given here; strong numbers were not always called active; one-dose inhibition, %; IC50 in µM for titrated hits; Virion infectivity factor (Human immunodeficiency virus type 1 group M subtype B (isolate …; 0.57% of 260,000 active;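 active = above the screen mean plus three standard deviations and confirmed in dose response; inconclusive = results disagree or hit not tested in dose response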;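 also: Vif residues 1-94 fused to GST binding biotinylated APOBEC3G peptide 110-148; 0% = full assay without inhibitor and 100% = GST in place of GST-Vif; retest series ran down from 100 µM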
rRNA inh HTS OD600: second read-out of rRNA inh HTS, no call of its own (marks repeat the call); OD600 change, %; measured here: OD600 growth;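 optical density of the mix in the first replicate; 0 = DMSO median and -100 = no signal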
rRNA inh HTS RFP: further read-out of rRNA inh HTS, marked with its call; RFP signal change, %; measured here: RFP humanized mutant strains;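 first replicate; 0 = DMSO median and -100 = no signal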
Active calls of the source: *; i = inactive; u = inconclusive; x = no result given. These rows are one share of the data (hit frequency here may not be typical).

Order of results: ALR H2O2 inh, AF4-AF9 inh, Ecoli growth, FGF22 binding, rRNA inh HTS, rRNA inh HTS OD600, rRNA inh HTS RFP, HNF4A DNA FP, Vif TR-FRET
[1] C[C@@H]1CN([C@H](C)CO)C(=O)c2cc(NC(=O)Nc3ccc(C(F)(F)F)cc3)ccc2O[C@@H](C)CCCCO[C@@H]1CN(C)C(=O)Nc1cccc2ccccc12
  x, -2.3, x, i, 1, 9, -1.6, x, x
[2] COCC#Cc1cnc2c(c1)C(=O)N([C@@H](C)CO)C[C@H](C)[C@H](CN(C)C(=O)Nc1ccc(OC)cc1)O2
  x, -3.6, x, i, 3, -1, -2.7, x, x
[3] O=C(Nc1ccccn1)c1ccc(S(=O)(=O)N2CCCC2)cc1
  -3, -1.9, 0.67, i, 9, 17, -0.1, -4.0, -4%
[4] COc1ccc(NC(=O)Nc2cccc3c2O[C@H](CN(C)Cc2ccc(C(=O)O)cc2)[C@@H](C)CN([C@H](C)CO)C3=O)cc1
  x, -0.6, x, i, 2, 6, 0.0, x, x
[5] C[C@H](O)C#Cc1ccc2c(c1)O[C@H](CN(C)Cc1ccccc1)[C@H](C)CN([C@H](C)CO)S2(=O)=O
  x, 0.2, x, i, 1, 2, -0.1, x, x
[6] O=C(/C=C/c1cccc([N+](=O)[O-])c1)Nc1ccccn1
  10, 0.4, 0.7, i, 6, 4, -5.9, -3.3, 8%
[7] CCOC(=O)c1ccc(N=C2SC(C(=O)NC)CC(=O)N2CCc2ccccc2)cc1 (stereo not drawn)
  -3, -1.8, 0.62, i, 11, 5, 0.9, 0.0, -5%
[8] CC(Sc1nc(-c2ccccc2)cc(C(F)(F)F)n1)C(=O)O (stereo not drawn)
  0, -1.7, 0.69, i, -13, -19, -1.7, 4.3, x
[9] COc1ccc(C(=O)/C(=C\N(C)C)n2nc(C)cc2C)cc1
  -7, -0.6, 0.69, x, 19, 17, 13, 1.0, x
[10] O=C(Nc1nnc(-c2ccco2)o1)c1cccc(N2C(=O)CCC2=O)c1
  -3, -0.2, 0.74, i, 22, 12, -0.3, -3.1, 2%
[11] C[C@@H]1CN([C@H](C)CO)C(=O)Cc2cc(NC(=O)CCCCCC(=O)Nc3ccccc3N)ccc2O[C@@H]1CN(C)Cc1ccc(C(F)(F)F)cc1
  x, -0.2, x, i, -3, -14, 13, x, x
[12] CCCCN(CC)CCCNC(=O)c1csc2c1CCCCC2
  -2, -2.6, 0.71, i, 10, 4, 2.0, -0.5, 1%
[13] Cc1cc(C(=O)COc2cccc(-n3cnnn3)c2)c(C)n1-c1ccccc1
  -21, x, 0.66, x, x, x, x, 8.4, 3%
[14] Cn1c(SCc2ccccc2Cl)nc(C(F)(F)F)cc1=O
  -4, x, 0.66, x, x, x, x, -2.4, -2%
[15] CO[C@H]1CN(C)C(=O)c2ccc(NC(=O)C3CCOCC3)cc2OC[C@H](C)N(C(C)=O)C[C@H]1C
  x, -1.7, x, i, 2, 1, -1.9, x, x
[16] CC(NC(N)=O)C(=O)Nc1ccc(Cl)c(S(=O)(=O)Nc2ccc(Cl)cc2)c1 (stereo not drawn)
  -12, -1.3, 0.7, i, -3, -5, -0.6, -4.0, 4%
[17] C[C@@H]1CCCCO[C@@H](CN(C)C(=O)Nc2cccc3ccccc23)[C@@H](C)CN([C@@H](C)CO)C(=O)c2cc(NS(=O)(=O)c3ccc(Cl)cc3)ccc2O1
  x, -9.0, x, i, 1, -9, -1.1, x, x
[18] C[C@@H]1CN([C@@H](C)CO)C(=O)c2cc(NC(=O)NC3CCCCC3)ccc2O[C@H]1CN(C)S(=O)(=O)c1cccs1
  x, -3.0, x, i, -7, -9, 0.5, x, x
[19] O=c1c2cc(N3CCOCC3)ccc2[nH]c(=S)n1CC1CCCO1 (stereo not drawn)
  -23, x, 0.72, x, x, x, x, 0.9, 22%
[20] CN(C)S(=O)(=O)c1ccc(NCC2COc3ccccc3O2)c([N+](=O)[O-])c1 (stereo not drawn)
  -1, x, 0.72, x, x, x, x, -0.5, x
[21] O=C(O)C1CC(c2ccccc2)=NO1 (stereo not drawn)
  -8, x, 0.71, x, x, x, x, -2.3, 1%
[22] COc1ccc(NC(=S)N2CCC(NC(=O)C3CCCCC3)CC2)cc1
  2, -15, 0.74, i, 4, 8, -3.9, -1.4, x
[23] O=C(NCCCN1CCCC1=O)C1CCN(S(=O)(=O)c2cc(C(F)(F)F)ccc2Cl)CC1
  -7, 0.9, 0.68, i, 6, -1, 1.9, -0.1, 2%
[24] CC(C)CC(C(=O)O)N(Cc1ccccc1)Cc1ccccc1 (stereo not drawn)
  14, x, 0.69, x, x, x, x, 3.3, -7%
[25] CC(Oc1ccc(-c2ccccc2)c(F)c1)c1ccn(S(=O)(=O)c2ccc(Br)cc2)n1 (stereo not drawn)
  -9, x, 0.76, x, x, x, x, 1.7, -6%
[26] Cc1noc(C)c1NC(=O)N(C)C[C@H]1Oc2ccc(NC(=O)Nc3ccccc3)cc2C(=O)N([C@@H](C)CO)C[C@H]1C
  x, 2.7, x, i, 3, -2, -1.0, x, x
[27] Cc1ccc2cc(CCNC(=O)Cc3cccs3)c(=O)[nH]c2c1
  -8, -0.8, 0.72, i, -4, -5, 0.5, 1.7, 25%
[28] CCOC(=O)c1c(C)[nH]c(C(=O)NCCN2CCOCC2)c1C
  -3, 0.0, 0.71, i, 8, 1, 1.8, 4.0, x
[29] CC(=O)N1c2ccc(S(=O)(=O)N3CCCC(C(=O)N4CCCCC4)C3)cc2CC1C (stereo not drawn)
  -1, -6.7, 0.71, i, -4, -12, -5.4, 1.2, x
[30] COc1cc(C(C(=O)NCC2CCCO2)N(C(=O)Cn2nnc3ccccc32)c2ccc(OC)c(OC)c2)ccc1O (stereo not drawn)
  x, 0.1, 0.66, i, 2, 3, -1.6, 2.0, -8%
[31] COCCNC(=O)Cc1ccc(F)cc1
  -10, 0.0, 0.68, i, 16, 10, 7.3, -1.8, 7%
[32] CCN(C[C@@H]1[C@@H](c2ccccc2)[C@@H](CO)N1C(C)=O)C(=O)c1ccccn1
  x, -1.0, x, i, 2, 14, -3.5, x, x
[33] Oc1[nH]c2ccccc2c1N=NC(=S)NCCc1ccccc1
  23, -1.9, 0.68, i, -44, -63, -23, 0.3, -4%
[34] CCOC(=O)c1c(Nc2nc(C)c(C(=O)NC)s2)sc(C)c1C
  -7, x, 0.75, x, x, x, x, 4.4, 22%
[35] Cc1ccc(NC(=O)CSc2ccccc2NC(=O)c2ccccc2)cc1Cl
  -8, -10, 0.71, i, 0, -1, -0.3, 1.3, -2%
[36] N#C/C(=C\Nc1ccc(F)c(Cl)c1)S(=O)(=O)c1ccccn1
  -7, 0.3, 0.7, i, -10, -5, 0.0, -0.6, 1%
[37] C[C@@H]1CN([C@@H](C)CO)C(=O)Cc2cc(NS(C)(=O)=O)ccc2O[C@H]1CN(C)S(=O)(=O)c1ccc(F)cc1
  x, -4.6, x, i, 0, 2, -1.1, x, x
[38] C[C@@H]1CN([C@@H](C)CO)C(=O)c2cccc(NC(=O)Nc3ccccc3)c2O[C@@H]1CN(C)S(=O)(=O)c1ccccc1
  x, 4.4, x, i, -3, -14, 0.7, x, x
[39] COC(=O)C(=NNc1c(C)n(C)n(-c2ccccc2)c1=O)C(=O)OC
  63, x, 0.66, x, x, x, x, 0.4, x
[40] CCCNC(=O)C[C@@H]1CC[C@H]2[C@@H](COc3ccc(NC(=O)C4CCOCC4)cc3C(=O)N2C)O1
  x, -1.1, x, i, 4, -1, -2.9, x, x
[41] CCC(=O)N(C)C[C@@H]1Oc2ncc(C#CC(C)(C)O)cc2C(=O)N([C@@H](C)CO)C[C@@H]1C
  x, -6.4, x, i, 3, 6, -3.0, x, x
[42] C[C@H]1CN([C@@H](C)CO)C(=O)c2cc(NC(=O)Nc3cccc4ccccc34)ccc2O[C@H]1CN(C)S(=O)(=O)c1ccccc1
  x, -1.3, x, i, -1, -1, 0.8, x, x
[43] CCCC(=O)Nc1ccc2c(c1)OC[C@H](C)N(C(=O)CN(C)C)C[C@H](C)[C@@H](OC)CN(C)C2=O
  x, -2.2, x, i, 4, -6, -0.3, x, x
[44] C#CCOCCOCCOCCNc1nc(N2CCN(C(=O)[C@H]([C@@H](C)O)n3cc(CCCCN)nn3)CC2)nc(N2CCN(C(=O)[C@H](CCCCN)n3cc(CCC(=O)O)nn3)CC2)n1
  x, x, x, i, 5, 2, 1.8, -1.1, x
[45] O=C(NCCCN1CCCC1=O)C1CCN(S(=O)(=O)c2ccccc2)CC1
  x, u, 0.67, i, 2, 13, -1.1, 0.1, 0%
[46] O=C(COc1cccc2cccnc12)NNC(=S)Nc1ccccc1
  3, x, 0.61, x, x, x, x, x, 22%
[47] COc1ccc(-c2cc(-c3ccc(F)cc3)nc(N3CCN(C)CC3)n2)cc1
  -15, x, 0.66, x, x, x, x, -1.2, -8%
[48] Cc1cn(CC(=O)N[C@H](CO)Cc2c[nH]c3ccccc23)c(=O)[nH]c1=O
  x, -7.4, x, i, 7, 15, 2.3, -31, x
[49] C[C@H](CO)N1C[C@H](C)[C@@H](CN(C)CC2CCOCC2)Oc2cc(C#Cc3cccnc3)ccc2S1(=O)=O
  x, 2.1, x, i, -2, -5, 0.1, x, x
[50] COc1ccccc1OCCCCCCN1CCN(C)CC1
  -13, 2.3, 0.63, i, 11, 5, 1.6, -2.5, x
[51] O=C(Cn1ncc(Cl)c(Cl)c1=O)c1ccc(Cl)cc1
  1, x, 0.68, x, x, x, x, -2.0, 5%
[52] COc1ccc(NC(=O)c2ccco2)cc1NC(=O)c1cccc(F)c1
  x, 2.9, 0.7, i, 3, 12, -0.6, -4.0, x
[53] Cc1ccc2nc(SCC(=O)N3CCCC3)[nH]c2c1
  -3, x, 0.75, x, x, x, x, -1.1, 3%
[54] CCOc1ccc(S(=O)(=O)N2CCN(S(=O)(=O)c3ccc(OCC)cc3)C(C)C2)cc1 (stereo not drawn)
  4, x, 0.64, x, x, x, x, 6.3, -3%
[55] COc1cc(CN(CC2CCCO2)C(=O)c2cccs2)cc(OC)c1OC (stereo not drawn)
  17, -3.7, 0.68, i, 13, 5, 2.4, -3.5, x
[56] O=C(Nc1ccc(-c2nc3cccnc3s2)cc1)C1CCCO1 (stereo not drawn)
  -4, -7.0, 0.75, i, -4, -20, -2.9, -0.8, x
[57] COc1ccc(S(=O)(=O)NCC(c2cccnc2)N2CCN(C)CC2)cc1C (stereo not drawn)
  -46, 5.6, 0.78, i, 1, 14, -4.9, -1.1, 27%
[58] Cc1ccccc1OCCn1cnc2c(N)ncnc21
  -1, x, 0.67, x, x, x, x, -3.1, -5%
[59] C=CCC[C@H](Cc1ccc(F)cc1)C(=O)OC[C@@H](C)NC(=O)[C@@H](CC=C)CC(=O)N[C@@H](CO)Cc1ccccc1
  -1, -4.0, 0.7, i, 7, 1, -1.2, 3.2, 4%
[60] CCN1CCC2(CCN(Cc3cn[nH]c3-c3ccc(OC)c(F)c3)C2)C1 (stereo not drawn)
  -3, 5.3, 0.72, i, 18, 20, 2.2, 1.2, 16%
[61] Cc1ccc(C)c(S(=O)(=O)N2CCCC2CNC(=O)C(=O)NCc2cccs2)c1 (stereo not drawn)
  -8, 0.3, 0.63, i, -12, -15, 3.8, 3.6, 0%

Bioassay records as filed in PubChem BioAssay.
